Source: PubChem (National Center for Advancing Translational Sciences (NCATS))
Cruzain noTriton: inhibitors of Trypanosoma cruzi cruzain without detergent; actives 2.3% (n = 200,000); P25779; purified cruzain, Z-FR-AMC fluorescence, no detergent; Potency, µM, without a hit: max response, negative = inhibition, most hits filed as inhibitors; AID 1476; active = well fitted curve in the direction sought with a large enough effect; inconclusive = small, poorly fitted or top-dose-only effect, or another doubt; inactive = no such curve, though single readings can be large; an effect the other way counts as inactive or inconclusive;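 note: plate controls were enzyme without inhibitor for no effect and buffer without enzyme for full effect; nearly all actives have a fitted effect of over 40% in size; top concentration of the series not given in the record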
Target sequence (P25779 123-467 limits assumed): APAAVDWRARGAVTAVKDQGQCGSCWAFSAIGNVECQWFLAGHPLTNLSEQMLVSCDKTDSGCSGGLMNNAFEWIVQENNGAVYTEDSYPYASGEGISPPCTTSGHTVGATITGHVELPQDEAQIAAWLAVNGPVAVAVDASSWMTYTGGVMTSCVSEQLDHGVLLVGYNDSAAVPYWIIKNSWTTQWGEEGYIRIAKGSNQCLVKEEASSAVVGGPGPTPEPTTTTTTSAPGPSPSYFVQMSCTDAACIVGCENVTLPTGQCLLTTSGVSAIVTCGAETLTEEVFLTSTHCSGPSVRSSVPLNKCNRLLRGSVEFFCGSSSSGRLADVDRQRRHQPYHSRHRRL
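Detergent-free condition (0.00005% Triton X-100) in acetate buffer pH 5.5 with DTT. 1.5 nM enzyme and compound were pre-mixed 15 min, then 2 uM Z-FR-AMC substrate added; reaction progress from fluorescence change between first and third reads (60 s).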
Lassa entry inh: inhibitors of Lassa virus binding or cell entry; Lassa virus pseudotype entry inhibition, cell reporter; control for the full effect not named in the record; Potency, µM (highest dose often 37.9 µM), for inactives: at the highest dose activity change, negative = inhibition, usual class: inhibitors; actives 1.2% (n = 300,000); AID 540256; active means well fitted inhibition curve with a large enough effect; inconclusive means small, poorly fitted or top-dose-only effect, or effect the other way; inactive means flat fitted curve, though single readings scatter; tested in HEK293 cells; note: % is set by controls: 0 for no effect and ±100 for the full control effect; nearly all actives have a fitted effect of over 50% in size; luciferase read-out
SARS PLpro yeast: blocks SARS-CoV papain-like protease in a yeast assay | S. cerevisiae expressing SARS-CoV PLpro, growth rescue; control for the full effect not named in the record | Potency, µM (titrated, usually from 32.9 µM), for the others: at the top dose activity, positive = growth rescue | actives 0.19% (n = 330,000); note: 0% is about no effect; nearly all actives have a fitted effect of over 55% in size; growth read by luminescence after 48 h
MARV entry inh: blocks Marburg virus binding to or entry into cells. Marburg virus pseudotyped entry inhibition, cell reporter; control for the full effect not named in the record; about a third of the inactives were read at about 46 µM. Potency, µM (doses to about 37.8 µM), for inactives: at the top dose activity change, negative = inhibition, hits mostly inhibitors. actives 1.8% (n = 300,000). AID 540276; active = well fitted inhibition curve with a large enough effect; inconclusive = small, poorly fitted or top-dose-only effect, or effect the other way; inactive = flat fitted curve, though single readings scatter; tested in HEK293 cells; about a fifth of its hits are not listed in these tables; note: % is set by controls: 0 for no effect and ±100 for the full control effect; luciferase read-out
2A StopGo: FMDV 2A StopGo reporter, luciferase signal; human cells with a luciferase reporter of 2A StopGo recoding; control for the full effect not named in the record; Potency, µM (series often up to 57.9 µM), without a hit: at the top dose signal change, negative = less light; actives 1.2% (n = 410,000); AID 1159524; active = well fitted falling curve with a large enough effect; inconclusive = small, poorly fitted or top-dose-only effect; inactive = no such curve, though single readings can be large or run the other way; tested in HEK293T cells; note: % is set by controls: 0 for no effect and ±100 for the full control effect; nearly all actives have a fitted effect of over 45% in size; luciferase light after 4 h
RE007 growth inh: less growth of the S. pombe RE007 Vpr strain; S. pombe RE007 Vpr strain, BacTiter-Glo ATP luminescence, 24 h; control for the full effect not named in the record; Potency, µM (highest dose often 92.2 µM), for the others: at the top dose activity change, negative = less growth; actives 0.21% (n = 360,000); AID 651644; active = well fitted falling curve with a large enough effect; inconclusive = small, poorly fitted or top-dose-only effect; inactive = no such curve, though single readings can be large or run the other way;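 note: % is set by controls: 0 for no effect and ±100 for the full control effect; nearly all actives have a fitted effect of over 50% in size; the assay follows cell death caused by Vpr and the record does not say whether a fall means rescue or toxicity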
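Fission yeast RE007 carrying one integrated HIV-1 vpr copy, seeded at OD 0.01 in PMG+AL medium with 23 nL pinned compound. Grown 24 h at 30 degrees; viability read by BacTiter-Glo luminescence after 5 min.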
NS1 inh: influenza NS1 inhibition; S. cerevisiae slowed by influenza A NS1, growth recovery by OD600; Potency, µM (series often up to 46.1 µM), for inactives: at the highest dose activity, positive = more growth; actives 0.4% (n = 270,000); AID 2326; note: actives are rising curves; nearly all actives have a fitted effect of over 50% in size
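Growth recovery, yeast-based: influenza A NS1 expressed in S. cerevisiae causes slow growth, and suppressors are detected by OD600. The parent strain without NS1 is used as positive control.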
Cruzain Triton: blocks cruzain activity in presence of Triton detergent | actives 0.43% (n = 200,000) | purified cruzain, Z-FR-AMC fluorescence, 0.01% Triton | AID 1478 | Potency, µM, without a hit: max response, negative = inhibition, usual class: inhibitors; active = well fitted curve in the direction sought with a large enough effect; inconclusive = small, poorly fitted or top-dose-only effect, or another doubt; inactive = no such curve, though single readings can be large; an effect the other way counts as inactive or inconclusive;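 note: plate controls were neutral wells for no effect and buffer without enzyme for full effect; nearly all actives have a fitted effect of over 40% in size; top concentration of the series not given in the record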
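Detergent-containing run (0.01% Triton X-100) in acetate buffer pH 5.5 with 5 mM DTT: enzyme at 1.5 nM final, 15 min compound preincubation at room temperature, then 2 uM Z-FR-AMC substrate. Activity taken as 60 s fluorescence increase at 360/450 nm.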
* hit, by the source's call; ? = inconclusive; . = not tested or not shown; & = joins results of further samples; [ ] = dose if it differs, or a comment. Unless noted, calls come from the whole dose curve; as a rule, active means well fitted rising curve with a large enough effect; inconclusive means small, poorly fitted or top-dose-only effect; inactive means no such curve, though single readings can be large or run the other way. Potency is the fitted concentration of half-maximal effect.

SMILES	Cruzain noTriton	Lassa entry inh	SARS PLpro yeast	MARV entry inh	2A StopGo	RE007 growth inh	NS1 inh	Cruzain Triton
S=c1[nH]nc(-c2ccncc2)n1/N=C/c1ccccc1Cl	.	.	0%	.	-13%	10%	5%	.
O=c1[nH]c(/C=C\c2ccc(O)cc2)nc(O)c1[N+](=O)[O-]	.	.	1%	.	-6%	-6%	17%	.
O=C(NNC(=O)c1ccccc1C(=O)O)c1ccc(O)cc1	.	12%[46.1 µM]	1%	1%	2%	17%	3%	.
COc1ccc(CC(=O)NCc2nnc(SCC(=O)Nc3nccs3)n2-c2ccccc2)cc1	3%	.	2%	.	?	-15%	-9%	-3.2%
COc1ccccc1N1CC(O)=C(c2nc3ccccc3c(=O)[nH]2)C1=N	-5%	-12%	-2%	-1%	.	0%	-6%	-4.9%
Cc1cc(C)cc(Oc2ccccc2C=O)c1	-13%	-23%	0%	-4%	?	10%	21%	-1.3%
Cc1ccc(NC2CCCN(C(=O)c3cccs3)C2)cc1C (stereo not given)	.	.	-2%	.	-1%	2%	6%	.
CC1(C(=O)OCC(=O)Nc2ncc(Cl)cc2Cl)CC1(Cl)Cl (stereo not given)	.	-14%	-3%	23%	1%	37%	.	.
CC1=C(C(=O)Nc2ccc(Cl)cc2)C(c2ccccc2F)n2nc(SCc3cccc(Cl)c3)nc2N1 (stereo not given)	7%	-7%[46.1 µM]	.	24%[46.1 µM]	-26%	.	.	-2.9%
COc1ccccc1CNC(=O)CS(=O)Cc1nc(-c2ccc(OC)c(OC)c2)oc1C (stereo not given)	?	7%[46.1 µM]	0%	-13%&-13%[46.1 µM]	-6%&-4%	9%	-7%	-11%
CCOc1ccccc1N1CCN(C(=O)c2ccc(Cl)c(S(=O)(=O)N3CCCCC3)c2)CC1	.	?	0%	?	32µM*	0%	.	.
Cn1c(SCC(=O)Nc2cccc(Br)c2)nnc1-c1cc2ccccc2o1	13µM*	-6%	3%	?	-8%	-8%	1%	0.7%
Cc1nc2ccc(NC(=O)c3cccs3)cc2c(=O)n1Cc1ccc(Cl)cc1	?	?	-14%	?	.	-7%	1%	-11%
CN(C(=O)COC(=O)c1cc(F)c(F)cc1Cl)c1ccccc1	.	-9%[46.1 µM]	0%	6%[46.1 µM]	-4%	-3%	-3%	.
CCc1noc(C)c1C(=O)N(Cc1ccccc1)c1c(N)n(CCOC)c(=O)[nH]c1=O	.	6%[46.1 µM]	-2%	-11%	-9%	8%	.	.
CCOC(=O)Cn1c(=NC(=O)C2COc3ccccc3O2)sc2cc(S(N)(=O)=O)ccc21 (stereo not given)	23%	1%	6%	1%	?	6%	12%	-5.9%
CCOC(=O)c1[nH]c2ccc(OC)cc2c1NC(=O)C(C)N1CCSCC1 (stereo not given)	3%	.	1%	2%	.	.	-32%	-6.7%
O=C(NCc1cccc(Cl)c1)c1ccc2nc(N3CCOCC3)sc2c1	.	.	-6%	.	-6%	-7%	-32%	.
CCCCNC(=O)N1c2ccccc2CC1C (stereo not given)	.	-17%[46.1 µM]	1%	8%[46.1 µM]	8%	3%	.	.
COC(=O)[C@@H](NC(=O)N1CCN(C(=O)C2COc3ccccc3O2)CC1)C(C)C (stereo not given in full)	.	14%[46.1 µM]	-4%	?	22%	-9%	-3%	.
CCCOc1ccccc1NC(=O)/C=C/C(N)=O	4%	4%	-37%	-22%	?	?	-222%	9.0%
O=C(CCS(=O)(=O)c1ccc2c(c1)NC(=O)CS2)NCc1cccs1	.	.	-5%	.	-13%	-1%	-2%	.
COc1cccc(-c2nc3ccc(N4CCN(C)CC4)cc3[nH]2)c1	.	?	-3%	?	14µM*	-20%	-1%	.
CS(=O)(=O)c1ccc(C(=O)Nc2ccc(N3CCCC3)cc2)c(Cl)c1	.	?	2%	8%[46.1 µM]	9%	15%	.	.
Cc1ccc(C(=O)Nc2nc3ccccc3[nH]2)cc1	.	?	-8%	1.4µM*	11µM*	-25%	-17%	.
O=C1CCCC2=C1C(c1ccco1)Nc1ccc(C(=O)c3ccccc3)cc1N2 (stereo not given)	-9%	?	-5%	?	-18%	-7%	-10%	-16%
COc1ccc(OCC(=O)Nc2ccc3c(c2)nc(CCN2CCCCC2)n3C)cc1	.	.	2%	.	4%	3%	5%	.
COc1cc(CO)ccc1OCC(=O)N1CCc2ccccc21	.	28%[46.1 µM]	-2%	-9%[46.1 µM]	19%	3%	-1%	.
O=C(CSc1ccc(F)cc1)Nc1ccc(N2CCOCC2)c(Cl)c1	.	?	-16%	12%	2%	16%	-16%	.
Cc1ccc2c(c1)C(CCN)C(=O)N2Cc1ccccc1 (stereo not given)	8%	0%	1%	-17%	1%	-1%	?	1.1%
CNC(=O)C1CCC(Cn2c(=O)c3sccc3n(Cc3ccc(F)cc3)c2=O)CC1 (stereo not given)	15%	14%[46.1 µM]	.	.	4%	.	.	-1.6%
NC(=O)C1CCN(C(=O)CSc2nc3ccccc3[nH]2)CC1	-3%	0%	-10%	7%	10%	5%	5%	6.3%
CCN(Cc1ccccc1)S(=O)(=O)c1cc(C(=O)OC)n(C)c1	.	.	6%	.	-2%	-2%	1%	.
O=C(Cc1ccccc1Cl)c1ccccc1	.	5%[46.1 µM]	.	-1%[46.1 µM]	6%	12%	.	.
CNS(=O)(=O)c1cccc(C(=O)OCC(=O)c2ccc3c(c2)OCCO3)c1	.	?	-1%	?	-28%	-19%	.	.
COc1cccc(-c2ncc3ccccn23)c1	-11%	-11%	-25%	?	58%[activator]	-6%	4%	-0.3%
O=C(CN1C(=O)/C(=C/c2cccc(Br)c2)SC1=S)N1CCCC1	23%	2%	1%	?	-25%	-4%	2%	-2.8%
Cc1cc(Sc2ccc([N+](=O)[O-])cn2)ccc1Br	.	1%	.	?	-12%	-16%	.	.
COc1ccc(S(=O)(=O)N2CCCN(S(=O)(=O)c3ccc(OC)cc3C)CC2)c(C)c1	3%	-24%	1%	-7%	.	-9%	3%	-2.7%
Cc1ccc(/C=C/c2onc(C)c2S(=O)(=O)N2CCC(C(=O)N3CCCCC3)CC2)cc1	.	.	1%	.	-22%	-1%	12%	.
CCC(=O)C1CCCN(C(=O)c2cccc(OC3CCN(S(C)(=O)=O)CC3)c2)C1 (stereo not given)	.	-12%[46.1 µM]	.	11%[46.1 µM]	-14%	4%	.	.
CN(CCc1cn[nH]c1)Cc1nc(Cc2ccccc2)no1	.	-8%	1%	?	-7%	15%	-1%	.
Cc1ccc(COC(=O)Cc2coc3cc(O)ccc23)cc1	.	12%[46.1 µM]	-12%	?	22%	11%	-38%	.
COc1ccc(C(=O)n2c(N)nc3ccccc32)cc1OC	.	-1%	1%	-17%	44%[activator]	-14%	-5%	.
CN1CCC(OC(=O)c2ccc(Br)cc2)CC1	.	3%	.	1%	-10%	-9%	.	.
COc1ccc(OC)c(-c2nn(-c3ccccc3)cc2C(=O)NCC(c2cccs2)N2CCOCC2)c1 (stereo not given)	.	-26%	-1%	-16%	-2%	5%	.	.
CC(C)=C(NC(=O)c1ccccc1)C(=O)N/N=C(\C)c1ccccc1O	9%	6%	15%	?	-14%	1%	-4%	-4.3%
CCN(CC)CCNc1nc2c(c(=O)[nH]c(=O)n2C)n1CCCc1ccccc1	.	.	2%	.	-10%	-6%	2%	.
CCOc1ccc(NC(=O)CN(C)C(=O)c2cccc3ccccc23)cc1OCC	.	9%	-5%	-29%	-22%	-21%	.	.
Cc1cc(=O)oc2cc3oc(=O)cc(C)c3cc12	.	.	-4%	.	4%	1%	10%	.
O=C(NCC1CCCO1)c1ccccc1NC(=O)c1cccc2ccccc12 (stereo not given)	-5%	-20%	1%	0%	-7%	26%	-5%	-4.4%

Filtered by structure, the entries above containing a Cl atom.
SMILES	Cruzain noTriton	Lassa entry inh	SARS PLpro yeast	MARV entry inh	2A StopGo	RE007 growth inh	NS1 inh	Cruzain Triton
S=c1[nH]nc(-c2ccncc2)n1/N=C/c1ccccc1Cl	.	.	0%	.	-13%	10%	5%	.
CC1(C(=O)OCC(=O)Nc2ncc(Cl)cc2Cl)CC1(Cl)Cl (stereo not given)	.	-14%	-3%	23%	1%	37%	.	.
CC1=C(C(=O)Nc2ccc(Cl)cc2)C(c2ccccc2F)n2nc(SCc3cccc(Cl)c3)nc2N1 (stereo not given)	7%	-7%[46.1 µM]	.	24%[46.1 µM]	-26%	.	.	-2.9%
CCOc1ccccc1N1CCN(C(=O)c2ccc(Cl)c(S(=O)(=O)N3CCCCC3)c2)CC1	.	?	0%	?	32µM*	0%	.	.
Cc1nc2ccc(NC(=O)c3cccs3)cc2c(=O)n1Cc1ccc(Cl)cc1	?	?	-14%	?	.	-7%	1%	-11%
CN(C(=O)COC(=O)c1cc(F)c(F)cc1Cl)c1ccccc1	.	-9%[46.1 µM]	0%	6%[46.1 µM]	-4%	-3%	-3%	.
O=C(NCc1cccc(Cl)c1)c1ccc2nc(N3CCOCC3)sc2c1	.	.	-6%	.	-6%	-7%	-32%	.
CS(=O)(=O)c1ccc(C(=O)Nc2ccc(N3CCCC3)cc2)c(Cl)c1	.	?	2%	8%[46.1 µM]	9%	15%	.	.
O=C(CSc1ccc(F)cc1)Nc1ccc(N2CCOCC2)c(Cl)c1	.	?	-16%	12%	2%	16%	-16%	.
O=C(Cc1ccccc1Cl)c1ccccc1	.	5%[46.1 µM]	.	-1%[46.1 µM]	6%	12%	.	.
